KCNQ2 inh = KCNQ2 potassium channel inhibitors, primary screen, cell-based, CHO-K1, FluxOR thallium flux, B-score (AID 2156); actives 1.1% (n = 310,000); B-score at 10 µM; 20 min; active compounds read low; only compounds with negative scores are shown here; some inactives read as strong as hits; Potassium voltage-gated channel subfamily KQT member 2 (Rattus norvegicus), O88943;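 active = fluorescence ratio B-score at most minus 3 library SDs, with starting brightness B-score within 2 library SDs, cut at about -5.5 in these data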
Target sequence (O88943 whole entry, looked up): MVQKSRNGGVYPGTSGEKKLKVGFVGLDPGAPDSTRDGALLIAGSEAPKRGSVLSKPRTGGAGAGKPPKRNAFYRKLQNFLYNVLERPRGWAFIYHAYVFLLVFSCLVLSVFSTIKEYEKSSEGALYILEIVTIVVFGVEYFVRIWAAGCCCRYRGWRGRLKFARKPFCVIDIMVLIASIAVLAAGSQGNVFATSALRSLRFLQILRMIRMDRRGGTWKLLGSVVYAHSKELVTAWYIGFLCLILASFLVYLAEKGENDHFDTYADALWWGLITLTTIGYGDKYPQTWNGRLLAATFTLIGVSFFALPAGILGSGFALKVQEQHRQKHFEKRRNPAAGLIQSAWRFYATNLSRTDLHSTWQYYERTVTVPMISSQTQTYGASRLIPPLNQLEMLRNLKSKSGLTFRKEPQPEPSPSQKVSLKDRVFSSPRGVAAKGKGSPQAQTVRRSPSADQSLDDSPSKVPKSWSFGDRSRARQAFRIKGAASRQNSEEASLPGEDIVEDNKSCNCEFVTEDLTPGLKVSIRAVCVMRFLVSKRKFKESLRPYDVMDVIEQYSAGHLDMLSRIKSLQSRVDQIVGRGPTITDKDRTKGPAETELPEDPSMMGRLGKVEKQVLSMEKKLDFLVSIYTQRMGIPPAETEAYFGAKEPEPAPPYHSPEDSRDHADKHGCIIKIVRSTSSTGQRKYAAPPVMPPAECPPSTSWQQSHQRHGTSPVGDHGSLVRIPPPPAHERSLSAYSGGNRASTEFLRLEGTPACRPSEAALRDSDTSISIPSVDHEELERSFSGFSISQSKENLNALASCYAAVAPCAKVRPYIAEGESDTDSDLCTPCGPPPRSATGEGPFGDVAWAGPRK
KCNQ2 inh baseline = also measured in KCNQ2 inh; calls as there; B-score; measured here: initial fluorescence intensity artifact check;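 brightness before thallium and not channel activity; 0 = typical well and far values either way flag optical interference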
The depositor's hits bear a star; i = inactive. Only part of the results is shown; rates above refer to the full screens.

KCNQ2 inh	KCNQ2 inh baseline	mol
i	0.05	CCOC(=O)c1c(C)[nH]c(C)c1C(=O)COc1ncnc2cc([N+](=O)[O-])ccc12
i	-0.79	CCc1ccc(NC(=O)CCc2c(C)nn(-c3ccc(N4CCCCC4)nn3)c2C)cc1
i	0.36	CCc1cccc(C)c1NC(=O)COn1nnc2ccc(C(F)(F)F)cc21
i	-0.42	COc1ccccc1NC(=O)NCCCN1CCN(c2cccc(Cl)c2)CC1
i	-0.78	CCOC(=O)CCC(=O)Nc1ccc(S(=O)(=O)N2CCCC2)cc1
i	1.1	CCOc1ccccc1-c1nc(CN2CCC(C(=O)N3CCOCC3)CC2)c(C)o1
i	-0.02	Cc1ccc(C)n1-c1cccc(N)c1
i	1.4	COCCCNC(=O)c1ccc2c(c1)ncn2-c1ccc(C)cc1C
i	-1.2	COc1cc(=O)[nH]c(SC(C)C(=O)Nc2nc3c(s2)CCCC3)n1 (configuration not stated)
i	-0.13	CC1=C(C(=O)Nc2ccccc2F)C(c2cccs2)C2=C(CCCC2=O)N1 (configuration not stated)
i	1.2	CCOc1ccc(-c2c(C#N)c(N)nc3c2c(=O)n(C)c(=O)n3C)cc1OC
i	1.2	O=C(COc1ccc(Br)cc1)N/N=C1/SCC(=O)N1Cc1ccccc1
i	1.8	CN(C(=O)CSc1nnnn1-c1ccc(O)cc1)C1CCS(=O)(=O)C1 (configuration not stated)
i	0.04	COC(=O)c1cc(C(=O)c2cc(Cl)ccc2O)coc1=N
i	-0.02	CC1(C)Cc2c(C#N)c(NCCc3ccccc3)nc(-c3ccco3)c2CO1
i	-0.34	Cc1cc(C)c(C#N)c(SCc2ccc(C#N)cc2)n1
i	0.69	COc1ccc(N2Nc3n[nH]c(N)c3N2)cc1
i	-0.57	Cc1ccc(C)c(NC(=O)CCC(=O)NNC(=O)COc2cc(C)ccc2C)c1
i	-0.22	CCN(CC(=O)Nc1c(F)cccc1F)C(=O)CSCc1c(C)noc1C
i	1.7	O=C(c1ccccc1)N1CCN(Cc2ccc3c(c2)OCO3)CC1
i	4.1	CCOC(=O)N1CCc2c(sc(NC(=O)CCS(=O)(=O)c3ccccc3)c2C(N)=O)C1
i	0.47	Cc1nc2sc3c(c2c(=O)[nH]1)CCC3
i	-0.05	Cc1ccc2[nH]c3c(=O)[nH]ncc3c2c1
i	1.9	O=C(COc1ccc(S(=O)(=O)N2CCOCC2)cc1Cl)NCCCn1ccnc1
i	-0.8	O=C(c1ccc2c(c1)OCCO2)C1CCN(S(=O)(=O)c2ccccc2F)CC1
i	-2.9	CN1CCCN(S(=O)(=O)c2cccc(C#N)c2)CC1
i	-1.3	OCCN1CCN(C2CCC(c3ccc(F)cc3)c3ccc(F)cc32)CC1 (configuration not stated)
i	-0.92	COc1ccc(C2=NN(C(=O)CCCC(=O)O)C(c3cn(-c4ccccc4)nc3-c3ccccc3)C2)cc1 (configuration not stated)
i	1.7	O=C(O)c1cc(NC(=O)c2ccco2)cc(NC(=O)c2ccco2)c1
i	1.4	C=C(C)COc1ccc(-c2nc(N)ncc2Oc2ccc(OC)cc2)c(O)c1
i	0.81	COc1ccc(S(=O)(=O)N2CCN(C(=O)c3ccc([N+](=O)[O-])o3)CC2)cc1
i	2.7	COc1ccc(OC)c(C(=O)c2nc3c(n2O)CCCCC3)c1
i	0.03	O=C(NCCCN1CCCC1)Nc1cccc2ccccc12
i	0.99	CCOc1ccc(-n2cnnn2)cc1S(=O)(=O)Nc1c(C)cccc1C
i	0.66	Cn1c(SCC(=O)Nc2ccc3c(c2)OCCO3)nnc1-c1ccccn1
i	-0.58	CCC(C)(C)NC(=O)C(c1ccccc1Cl)N(C(=O)CCC(=O)Nc1cc(C)on1)C(C)(C)C (configuration not stated)

In another format: results already given
smiles	KCNQ2 inh	KCNQ2 inh baseline
C=C(C)COc1ccc(-c2nc(N)ncc2Oc2ccc(OC)cc2)c(O)c1	i	1.4
COc1ccc(S(=O)(=O)N2CCN(C(=O)c3ccc([N+](=O)[O-])o3)CC2)cc1	i	0.81

(list continues)
KCNQ2 inh	KCNQ2 inh baseline	mol
i	1.8	CCOC(=O)c1c(C)[nH]c(C(=O)/C(C#N)=C/c2ccc(OCC)cc2)c1C
i	0.85	CCCCC(=O)OCC(=O)Nc1cccc(S(=O)(=O)NC2=NCCCCC2)c1
i	0.82	CC(Oc1ccc(Cl)cc1Cl)C(=O)NCCCCc1ccccc1 (configuration not stated)
i	-0.4	O=c1c2c(n3nnnc3n1-c1ccccc1)-c1ccccc1CC21CCCC1
i	-0.37	CN=C1c2cc3c(Br)c(OC)ccc3n2CCN1C
i	0.59	O=C(O)c1cccc(NC(=O)C2CCCO2)c1 (configuration not stated)
i	-1.3	COc1cccc(/C(O)=C2/C(=O)C(=O)N(CCN(C)C)C2c2ccc(Br)cc2)c1 (configuration not stated)
i	3.3	O=C(COc1ccc(Cl)cc1)Nc1cnn(Cc2c(Cl)cccc2Cl)c1
i	-0.5	Cc1cc(NC(=O)CCC(=O)N(Cc2ccco2)C(C)(C)C(=O)NC2CCCCC2)no1
i	-2.5	CC(C)(C)c1ccc(Cn2nnc3c(=O)[nH]c(C4CCN(C(=O)Cc5cccs5)CC4)nc32)cc1
i	-0.72	COc1ccc(CNC(=O)C(C)OC(=O)CN2C(=O)COc3ccccc32)cc1 (configuration not stated)
i	0.33	Cc1ccc(C(=O)Nc2sc(C)c(C)c2C(=O)c2ccccc2)cc1
i	1.5	COc1ccc(COC(=O)c2ccc(Cl)c(S(=O)(=O)N3CC(C)OC(C)C3)c2)cc1 (configuration not stated)
i	-0.06	CCn1c(SCc2nc3ccccc3[nH]2)nnc1-c1cnccn1
i	0.44	Cc1cccc2nc(COc3ccc4ccccc4c3Br)cn12
i	-1.5	CC(C)C[C@H](NC(=O)N1CCn2c1nc1ccccc12)C(=O)NCCc1ccccc1
i	0.24	O=C(/C=C/c1ccccc1)NCc1ccco1
i	0.56	CC(=O)c1ccc(-n2c(=O)[nH]c(=O)c3c(N)c(C(=O)c4ccc(Cl)cc4)sc32)cc1
i	2.1	CCOc1ccc(NS(=O)(=O)c2ccc(NC(C)=O)c(OC)c2)cc1
i	-2.2	CN1CCN(c2nc(Nc3ccc(F)cc3)nc(Nc3ccc(F)cc3)n2)CC1
i	0.18	N#CC1=C(N)OC2=C(C(=O)CC(c3ccco3)C2)C1c1ccc(OCc2c(F)cccc2Cl)cc1 (configuration not stated)
i	-1.8	Cc1nn(C)c(C(=O)N/N=C/c2ccc(-c3ccccc3)cc2)c1Cl
i	2.3	CC(C)(C)C1CCc2sc(C(=O)NNC(=O)CCl)cc2C1 (configuration not stated)
i	-1.4	CC(C(=O)NCc1ccccc1)N(Cc1ccccc1Cl)C(=O)c1snc(C(N)=O)c1N (configuration not stated)

In another format: entries from further up
CN1CCN(c2nc(Nc3ccc(F)cc3)nc(Nc3ccc(F)cc3)n2)CC1
  KCNQ2 inh: i
  KCNQ2 inh baseline: -2.2
CCOc1ccc(NS(=O)(=O)c2ccc(NC(C)=O)c(OC)c2)cc1
  KCNQ2 inh: i
  KCNQ2 inh baseline: 2.1

(more compounds)
KCNQ2 inh	KCNQ2 inh baseline	mol
i	-1.2	COC(=O)C1CCN(C(=O)c2cc3c(=O)n4cccc(C)c4nc3n2Cc2ccccc2)CC1
i	1.6	CCOc1ccc(NCc2cccn2-c2nnc(N3CCC(C(=O)NCCCN4CCCCC4)CC3)s2)cc1
i	-1.3	Cc1cc(C)c2c(=O)[nH]n(C(C)C)c2n1
i	1.6	Cn1c(Sc2ccc(Cl)cc2)c(C=O)c2ccccc21
i	-0.39	COc1ccc(C(=O)Nc2ccccc2C(=O)NCCN2CCOCC2)cc1
i	1.7	O=[N+]([O-])c1ccc(CP(=O)(c2ccccc2)c2ccccc2)cc1
i	0.36	Cc1cc(C)n(CCc2nc(-c3cccs3)cs2)n1
i	1.4	Cc1ccc(C)c(OCCCC(=O)NC2CCCCC2)c1
i	1.4	COC(=O)c1nnn(-c2cccc(Cl)c2)c1C(=O)OC
i	0.21	COC(=O)Cn1c(CN2CCc3ccccc3C2)nc2c1c(=O)n(C)c(=O)n2C
i	0.82	CCC1(C(=O)O)NC(c2cccc(OC)c2O)C2C(=O)N(c3ccccc3)C(=O)C21 (configuration not stated)
i	0.55	O=C(O)CC1(CC(=O)NCc2ccc(-c3cccs3)cc2)CCCCC1
i	-0.99	COc1ccc(N=C2CCS(=O)(=O)c3sccc32)cc1
i	-0.61	N/C(=N\c1nc(CSc2ccc(Cl)cc2)cc(=O)[nH]1)Nc1cccc2ccccc12
i	-1.3	COc1ccc(Cn2c(=S)[nH]c3ccccc32)cc1
i	-1.4	COC(=O)C1CCN(C(=O)c2cc3ccccc3oc2=O)CC1
i	0.84	O=C(Nc1cccnc1)c1cccc(-c2cc3ccccc3oc2=O)c1
i	-0.51	CC1(C)OC(=O)C(=CNc2ccc(F)cc2)C(=O)O1
i	-0.67	Cc1cccc(C(=O)NCCCn2ccnc2)c1C
i	0.02	Cc1ccc(C(=O)NC(NC(=S)Nc2ccc(S(N)(=O)=O)cc2)C(Cl)(Cl)Cl)cc1 (configuration not stated)
i	0.45	COC(=O)CSc1nc2ncccc2[nH]1
i	-0.68	COc1ccccc1NS(=O)(=O)c1cccc(C(=O)NN=C2CCCC2)c1
i	0.03	O=C(N/N=C/c1ccc(OC(=O)c2ccccc2Cl)cc1)c1cc(O)cc(O)c1
i	0.38	COc1ccc(/C=C/C(=O)c2cc(F)ccc2OC(=O)c2ccccc2C)cc1OC

Taken from above:
`Cc1cccc(C(=O)NCCCn2ccnc2)c1C` | KCNQ2 inh baseline: -0.67
`N/C(=N\c1nc(CSc2ccc(Cl)cc2)cc(=O)[nH]1)Nc1cccc2ccccc12` | KCNQ2 inh baseline: -0.61

Carrying on:
KCNQ2 inh	KCNQ2 inh baseline	mol
i	-0.11	COc1ccc(S(=O)(=O)Nc2ccccn2)cc1OC
i	-0.73	COc1cccc(N2[C@@H](CC(C)=O)c3cc(C(F)(F)F)ccc3S2(=O)=O)c1
i	-0.81	Cc1ccc(-c2cccc(OC(=O)c3ccccc3F)c2)cc1
i	-0.18	CCc1ccc(CNC(=O)CCn2ccc3cc(S(=O)(=O)N4CCCC4)ccc32)cc1
i	0.51	CC(C)OC(=O)/C(C#N)=C/c1cn(C)c2ccccc12
i	-1.2	Cc1nn(-c2ccc(N3CCCCC3)nn2)c(C)c1CCC(=O)Nc1cccc(F)c1
i	-0.19	CN(C)C(=O)/C(=C\c1ccc(-c2cccc([N+](=O)[O-])c2)o1)NC(=O)c1ccccc1
i	-1.7	O=C1CCN(C(=O)Nc2ccccc2Cl)N1
i	0.15	O=C(O)c1ccc2c(c1)C(=O)N(NC(=O)c1ccc(O)cc1)C2=O
i	0.03	CN(CCO)c1ncnc2c1sc1nc(N3CCOCC3)c3c(c12)CCC3
i	1.2	Cc1ccc(-c2nnc(/C=C/c3ccccc3)o2)cc1
i	-0.8	CCOC(=O)c1c(S(=O)(=O)NC2CCN(C(=O)OCC)CC2)c(C)n(C)c1C
i	-0.89	COC(=O)c1sccc1NC(=O)/C=C/c1c(Cl)cccc1Cl
i	0.09	C=CCN1C(c2ccc(OCC)cc2)=CS/C1=C(\C#N)c1nnc2n1CCCCC2
i	-0.92	O=C(NCCc1nc2ccccc2[nH]1)c1ccc(Br)o1
i	1.2	O=C(Cn1ccc2ccccc2c1=O)N1CCN(c2cccc(Cl)c2)CC1
i	-0.07	Cc1ccnc2nc(C(=O)Nc3nnc(-c4ccc(Cl)cc4)o3)nn12
i	0.32	COc1ccccc1N1CCN(S(=O)(=O)c2ccc3c4c(cccc24)C(=O)N3)CC1
i	0.02	O=C(NC1CCCCC1)c1ccccc1NC(=S)NC(=O)C1CC1
i	-1.5	N[C@@H](Cc1ccccc1)C(=O)N1CCOCC1
i	0.69	Clc1ccc(-c2n[nH]c3c2CCC3)cc1Cl
i	-0.54	O=C(Nc1ccc(-c2nc3ccccc3o2)cc1)c1ccc(N2CCOCC2)c([N+](=O)[O-])c1
i	-0.71	CCN(CC(=O)Nc1ccccc1C(F)(F)F)C(=O)/C=C/c1ccc(Cl)c([N+](=O)[O-])c1
i	-0.9	CCN1CCC(CNCc2cn(-c3ccc(OC)cc3)nc2-c2ccccc2Cl)C1 (configuration not stated)
i	-0.78	COc1ccc(-c2nnc(CSc3nc4ccccc4c(=O)n3CC(C)C)o2)cc1OC
i	-1.8	O=C1CC(c2ccccc2)CC(O)=C1C=NCCN1CCOCC1 (configuration not stated)
i	-0.38	O=C(O)CN1C(=O)SC(Nc2ccccc2)C1=O (configuration not stated)
i	-0.05	O=C(Cc1ccc(Cl)cc1)Nc1ccc2oc(=O)ccc2c1
i	-0.76	Cc1ccc(NC(=O)C(OC(=O)c2ccc(O)cc2)c2ccccc2)cc1Cl (configuration not stated)
i	2.2	COc1ccc(C(=O)n2cc(C(C)=O)c3ccccc32)cc1
i	0.19	CC(=O)Nc1ccc(N2C(=O)CSC2c2ccccc2)cc1 (configuration not stated)
i	-0.2	O=C(COC(=O)c1ccc2ccccc2n1)c1ccccc1
i	0.98	Cc1ccc2cccc(NC(=O)C(F)(F)F)c2n1
i	0.38	CC(=O)c1ccc(N2CCN(CC(O)COC(c3ccccc3)c3ccccc3C)CC2)cc1 (configuration not stated)
i	0.91	COc1ccc(CNCC(O)(c2ccc(F)cc2)c2ccc(F)cc2)cc1

Entries of single compounds as entered above.
CCn1c(SCc2nc3ccccc3[nH]2)nnc1-c1cnccn1 across the screens: KCNQ2 inh = i; KCNQ2 inh baseline = -0.06
COc1ccc(N=C2CCS(=O)(=O)c3sccc32)cc1 across the screens: KCNQ2 inh = i; KCNQ2 inh baseline = -0.99
O=C(Nc1cccnc1)c1cccc(-c2cc3ccccc3oc2=O)c1 across the screens: KCNQ2 inh = i; KCNQ2 inh baseline = 0.84
